GIV-Gai inh – GIV-Galpha-i interaction inhibition | 210,000 compounds, 0.42% hits | percent of control (FP), % (test concentration not listed) | AID 1224905 | Galpha-i3/FITC-GIV peptide fluorescence polarization, 90 min; active compounds read low; scaled: aluminum fluoride 0%, vehicle 100% | P08753;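 active means replicate mean at 85% of control or lower, very high polarization wells dropped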;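 further: lower values mean more displacement of the GIV peptide from Galpha-i3; wells of about 15 µL received 100 nL stock; the first replicate is given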
Target sequence (P08753 whole entry, looked up): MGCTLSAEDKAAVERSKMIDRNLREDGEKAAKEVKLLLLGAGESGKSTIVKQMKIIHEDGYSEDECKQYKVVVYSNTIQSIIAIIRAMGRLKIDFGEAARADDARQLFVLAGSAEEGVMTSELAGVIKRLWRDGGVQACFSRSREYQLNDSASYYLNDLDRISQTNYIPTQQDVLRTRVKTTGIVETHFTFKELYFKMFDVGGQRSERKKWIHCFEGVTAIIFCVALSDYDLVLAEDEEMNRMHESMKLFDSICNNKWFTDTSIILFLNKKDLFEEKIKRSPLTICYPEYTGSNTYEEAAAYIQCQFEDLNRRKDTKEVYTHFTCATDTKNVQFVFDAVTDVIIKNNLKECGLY
Starred values were filed as active, the others as inactive.

SMILES	GIV-Gai inh
CCOP(=O)(OCC)c1nc(-c2ccc(C)cc2)oc1NCc1ccccc1	107.4
O=C(CN1C2=NCCCN2c2ccccc21)c1ccc(Cl)cc1	90.2
COc1ccccc1NC(=O)C1=C(C)NC(SCC(=O)Nc2ccccc2C)=C(C#N)C1c1ccccc1 (stereo not given)	105.5
O=C(NCCc1cscn1)[C@H]1CSCN1C(=O)c1ccccc1	95.4
Cc1ccc(COc2c(Br)cc(C3Nc4ccc5ccccc5c4C4=C3C(=O)CC(C)(C)C4)cc2Br)cc1 (stereo not given)	115.6
O=C1CN(Cc2ccc(Br)cc2)S(=O)(=O)c2ccccc2N1Cc1cccc(F)c1	102.8
CCn1c(SCc2nc(-c3cccc(C)c3)oc2C)nc2c(=O)[nH]cnc21	113.5
COc1ccccc1N1CCN(c2cc(NCCCO)c([N+](=O)[O-])c3nonc23)CC1	103.8
O=c1c2nc(-c3ccc(Br)cc3)cn2ccn1-c1ccccc1	102.5
N#Cc1c(/N=C/c2ccc([N+](=O)[O-])cc2)oc(-c2ccccc2)c1-c1ccccc1	116.4
O=C(NCC(=O)N1CCN(S(=O)(=O)c2ccc3[nH]c(=O)sc3c2)CC1)c1ccccc1	98.9
Cn1cccc1C(=O)C(=O)N1CCCc2ccccc21	101.4
COc1ccc(OC)c(NC(=O)c2cc(S(=O)(=O)N3CCN(c4cccc(C)c4C)CC3)ccc2F)c1	105.4
Cc1ccc(C2N(Cc3ccccc3)CCN2Cc2ccccc2)cc1	114.3
O=C(Nc1nnc(SCc2cc(=O)n3ccccc3n2)s1)c1ccc(Cl)cc1	99.2
CCc1noc(-c2c(S(=O)(=O)NC3CCCC3)c(C)n(C)c2C)n1	104.0
COc1ccc2c(c1)NC1(CCN(C(=O)Nc3cccc(Br)c3)CC1)c1cccn1-2	106.8
CCOC(=O)c1ccc(-n2c(=S)sc3c2nc(SCC#N)n2c4ccccc4nc32)cc1	99.4
COc1cc(OC)c(OC)cc1/C=C1N=C(/C=C/c2cccc(Cl)c2Cl)OC\1=O	113.7
Cn1c2c(c(=O)n(C)c1=O)C(c1ccc([N+](=O)[O-])cc1)Nc1ccccc1O2 (stereo not given)	104.7
COc1cc2c(cc1OC)C(C(Cl)Cl)=NC(C)(C)C2	110.1
Cc1sc(-c2noc(C(=O)N3CCOCC3)n2)cc1S(=O)(=O)NC1CC1	98.5
CCSc1nc2ccc(NS(=O)(=O)c3ccccc3Cl)cc2s1	99.2
O=C(Nc1cccc(Br)c1)C1CCCN(C(=O)C2Sc3ccccc3NC2=O)C1 (stereo not given)	101.4
Cc1csc(-c2cc(S(=O)(=O)NC3CCCCCC3)c(C)s2)n1	120.3
CC1CC(C)CN(c2cc(NCCCO)c([N+](=O)[O-])c3nonc23)C1 (stereo not given)	106.0
O=S(=O)(Nc1ccc(F)c(F)c1)c1ccccc1-c1nc(-c2ccccc2)no1	104.3
O=C(NCCc1cccs1)c1cc2cn(C3CC3)cc2s1	127.6
COc1cccc(CSc2ccc(S(=O)(=O)N3CCN(C)CC3)cc2C(=O)N2CCC(C)CC2)c1OC	111.0
CN1CCN(S(=O)(=O)c2ccc3c(c2)C(C)(C)CN3CC(=O)N2CCCC2)CC1	108.5
COc1ccc(OC)c(S(=O)(=O)Nc2ccc(Sc3cc(C)nc4nc(C)nn34)cc2)c1	105.6
CCOc1ccc(-n2c(SCC(=O)Nc3cc(Cl)c(OC)cc3OC)nc3n[nH]c(C)c3c2=N)cc1	102.2
COC(=O)c1ccc(NC(=O)Cn2cnc3nc(N4CCCC4)ncc3c2=O)cc1	98.4
CC1=C(C(=O)NCc2ccc(F)cc2)C2(CCCCC2)OC1=O	110.6
CCOc1c(Br)cc(C2C(C(=O)OC)=CN(Cc3ccc(OC)cc3)C=C2C(=O)OC)cc1OC	114.8
Cc1cc(-c2c(C)sc(C)c2S(=O)(=O)Nc2ccc(C)c(C)c2)n[nH]1	95.2
Cc1ccc(-n2c(=S)sc3c(=O)n(-c4ccccc4C)c(=S)[nH]c32)c(C)c1	113.2
O=C(Nc1ccc2c(c1)OCCO2)C1CCN(c2cc(C(=O)N3CCCCC3)ccn2)CC1	103.5
Cc1cc([N+](=O)[O-])ccc1N1C(=O)C2C3c4ccccc4C(CO)(c4ccccc43)C2C1=O (stereo not given)	128.8
Cc1ccc2nc(-n3nc(C)c4c3NC(=O)CC4c3ccc(C(C)C)cc3)sc2c1 (stereo not given)	97.3
COc1ccc(N2C(N)=C(C#N)C(c3ccc4c(c3)OCO4)C3=C2CC(C)(C)CC3=O)cc1 (stereo not given)	109.2
CON1C(=O)CN(C(=O)c2ccccc2)C1(C)C	104.1
Nc1c(Cl)cc(N2C(=O)C3C4c5ccccc5C(c5ccccc54)C3C2=O)cc1Cl (stereo not given)	103.2
CCCNC(=O)C1CCN(Cc2cn(C)c3ccc(Cl)cc23)CC1	102.0
CC(Oc1ccccc1)c1nc(Cn2cnc(S(=O)(=O)N3CCCCC3)c2)no1 (stereo not given)	107.1
CC1CCCN(CN2C(=O)C3(OCC(CO)([N+](=O)[O-])CO3)c3ccccc32)C1 (stereo not given)	109.7
CCOc1cc(CN2CCCC2c2cc(C)no2)ccc1O (stereo not given)	98.9
O=C1C2C3C=CC(C2C(=O)N1Cc1ccco1)C1C2C(=O)N(Cc4ccco4)C(=O)C2C31 (stereo not given)	107.8
COc1ccccc1CNC(=O)c1sc2ncnc(N3CCN(c4ccccn4)CC3)c2c1C	106.0
CCC(=O)Nc1nc(-c2ccc(Cl)cc2)nc2c1c(=O)oc1ccccc12	111.6
O=C(NCc1csc(-c2ccccc2)n1)[C@H]1CSCN1C(=O)c1cccc(Br)c1	105.4
CCCC(=O)N1CCN(c2nc3ccccc3n(CC)c2=O)CC1	100.9
CN1c2cc(F)ccc2C(=O)NC12CCN(C(=O)Nc1ccc3c(c1)OCCO3)CC2	103.4
Cc1ccc(-c2[nH]nc3c2C(c2ccc(OC(=O)N4CCOCC4)cc2)C(C#N)=C(N)O3)cc1 (stereo not given)	107.4
CC(C)C1N=C2c3ccccc3N=C(SCC(=O)NCCc3ccc(S(N)(=O)=O)cc3)N2C1=O (stereo not given)	105.5
CN1CCN(CC(O)Cn2c3ccccc3c3ccccc32)CC1 (stereo not given)	102.5
CC(C)(NC(=O)C1CCCO1)c1nc2c(c(C(N)=O)n1)OCCO2 (stereo not given)	103.3
COc1ccc(N2CC(O)(c3ccc(C)cc3)[N+]3=C2CCCC3)cc1 (stereo not given)	105.4
CCOC(=O)N1CCN(C(=O)c2c[nH]c3ccc(S(=O)(=O)N(C)c4cc(C)ccc4C)cc3c2=O)CC1	110.7
Cc1c(C(=O)O)sc2ncnc(NC3CCCC3)c12	100.4
Other entries
SMILES	GIV-Gai inh
O=C(Nc1cccc(Br)c1)C1CCN(c2cc(C(=O)N3CCCC3)ccn2)CC1	97.6
CCNc1cc(C)nc(N2CCN(C(=O)C(C)(C)C)CC2)n1	104.1
CCOC(=O)Cc1nnc2c(Nc3cccc(Br)c3)nc3nonc3n12	106.0
O=c1n(Cc2ccccc2Cl)nc2c(S(=O)(=O)N3CCOCC3)cccn12	100.7
CCOc1ccc(N/C(SCc2ccc(Cl)cc2)=C(/C#N)C(=O)NCc2ccc3c(c2)OCO3)cc1	107.0
CCCCCCCCCCCCCCCCCC(=O)OCC1OC2OC(C)(C)OC2C2OC(C)(C)OC12 (stereo not given)	113.8
Cc1ccc(NC(=O)N2CCCC(CCC(=O)N3CCN(C)CC3)C2)cc1 (stereo not given)	100.5
Cc1ccc(NC(=O)CSc2nc3cc(C(=O)NCCCOC(C)C)ccc3c(=O)n2Cc2ccco2)cc1Cl	105.5
CC(=O)NC(=O)c1cc2cc(Br)ccc2oc1=Nc1ccc(F)cc1F	110.8
COc1ccc(Br)cc1C1N(c2ccc(Cl)cc2)CCN1c1ccc(Cl)cc1	104.7
CCOC(=O)c1c(C)oc2ccc(N(C(=O)c3ccc(C)cc3)S(=O)(=O)c3ccccc3)cc12	110.5
CCc1nc2sc(C(C)C)nn2c1S(=O)(=O)N1CCSCC1	98.7
Cc1ccc(C2CC(=O)Nc3c2cnn3-c2nc3ccccc3s2)cc1 (stereo not given)	96.0
Cc1ccc(C2OC3(C(=O)c4ccccc4C3=O)C3C(=O)N(c4cccc(Cl)c4Cl)C(=O)C23)cc1 (stereo not given)	106.9
CCCC(C)NC(=O)c1sc2nc(C)nc(N3CCOCC3)c2c1C (stereo not given)	100.2
COC(=O)c1sc2nc(N)c(C#N)c(-c3ccc(OC)c(OC)c3)c2c1N	102.3
O=C1c2cc(S(=O)(=O)N3CCOCC3)cc([N+](=O)[O-])c2-c2c1cc(S(=O)(=O)N1CCOCC1)cc2[N+](=O)[O-]	107.8
O=C(NCCCN1CCCc2ccccc21)C1CCc2nc(N3CCOCC3)ncc2C1 (stereo not given)	101.9
COc1cc(OC)cc(-c2noc(-c3nn(-c4ccc(C)c(C)c4)ccc3=O)n2)c1	100.9
O=C(NCc1nnc(SCC(=O)N2CCc3ccccc32)n1-c1ccc(F)cc1)c1cccs1	111.1
Cc1nn(-c2ccc(F)cc2)c2sc(C(=O)Nc3ccccc3)cc12	106.1
COc1ccc(C(C(=O)NN(C)c2ccccc2)(c2ccccc2)c2ccccc2)cc1	103.8
O=C(CSc1nc2ccccc2c2nc(CCc3c[nH]c4ccccc34)nn12)c1ccccc1	100.6
O=C(c1ccc2c(=O)n(Cc3ccc(Cl)cc3)c(=S)[nH]c2c1)N1CCN(Cc2ccc3c(c2)OCO3)CC1	111.9
O=C(CCc1ccccc1)N1N=C(C(F)(F)F)CC1(O)c1ccc(F)cc1 (stereo not given)	114.1
COC(=O)c1ccc2c(=O)n(Nc3nc(C)cc(C)n3)c(SCc3cccc(F)c3)nc2c1	114.0
O=C(Nc1ccc2c(c1)OCCO2)c1nc2ccccc2nc1N1CCCC1	100.7
COc1cccc(C(=O)NCc2nnc(SCC(=O)N3CCc4ccccc43)n2-c2cc(OC)ccc2OC)c1	108.5
O=C(c1ccccc1F)N1CCN=C1N1CCCCC1	107.8
CC(C)CCn1c(=O)c2sccc2n2c(=O)n(CC(N)=O)nc12	102.2

By substructure: the compounds so far with a furan ring, fused or not.
SMILES	GIV-Gai inh
N#Cc1c(/N=C/c2ccc([N+](=O)[O-])cc2)oc(-c2ccccc2)c1-c1ccccc1	116.4
O=C1C2C3C=CC(C2C(=O)N1Cc1ccco1)C1C2C(=O)N(Cc4ccco4)C(=O)C2C31 (stereo not given)	107.8
Cc1ccc(NC(=O)CSc2nc3cc(C(=O)NCCCOC(C)C)ccc3c(=O)n2Cc2ccco2)cc1Cl	105.5
CCOC(=O)c1c(C)oc2ccc(N(C(=O)c3ccc(C)cc3)S(=O)(=O)c3ccccc3)cc12	110.5

(more compounds)
SMILES	GIV-Gai inh
Cc1nc(-c2nnn(-c3ccc(Cl)cc3)c2C)sc1C(=O)NC1CCCCC1	105.3
CC(C)(C)c1cc(-c2cn3nc(-c4ccccc4)c(-c4ccccc4)nc3n2)c2c(c1)C(C)(C)CC2	102.2
COc1ccc(-n2c(=S)[nH]c3cc(C(=O)Nc4ccc(OC)c(Cl)c4)ccc3c2=O)c(OC)c1	109.9
C=CCOc1cccc(C2CC(=O)Nc3c2cnn3-c2nc3ccccc3s2)c1 (stereo not given)	100.4
O=C1/C(=C/c2ccc(-c3ccc([N+](=O)[O-])cc3)o2)C=C(c2ccccc2)N1c1ccc(-c2ccccc2)cc1	108.7
Cc1c(N=Cc2ccc(Br)cc2)c(=O)n(-c2ccccc2)n1C	112.4
CCOc1cc(C(=O)Nc2c3c(nn2-c2ccc(Cl)cc2)CS(=O)(=O)C3)cc(OCC)c1OCC	98.5
Cc1cc(/C=C2\NC(=S)NC2=O)c(C)n1-c1ccc(Br)cc1	101.2
Cc1ccc(C2(c3ccc(C)cc3)CC2C(=O)Nc2cccc(C)c2)cc1 (stereo not given)	112.5
O=C(c1c(F)cccc1F)N1CCN=C1N1CCCC1	107.6
CCCS(=O)(=O)c1c(S(=O)(=O)CCC)c2ccccn2c1C(=O)N/N=C/c1ccccc1	101.9
CCOC(=O)N1CCC(NC(=O)CSc2nc3ccccc3n2S(=O)(=O)c2cc([N+](=O)[O-])ccc2C)CC1	116.1
O=C(C[n+]1cc(-c2ccccc2)n2c1CCCCC2)c1ccc(Br)cc1	123.9
COc1ccc(OC)c(-c2nc3c4ccccc4c4ccccc4c3[nH]2)c1	109.2
Cc1noc(C)c1S(=O)(=O)N1CCc2nc[nH]c2C1	95.3
Cc1csc(-c2cc(S(=O)(=O)Nc3cccc(C)c3C)c(C)s2)n1	105.6
Nc1cccc(-c2cc(-c3ccccc3)nc(-c3cccc(N)c3)n2)c1	110.7
COc1ccccc1-c1cc2n(C)c(C)c(CCC(=O)NC3CCCC3)c(=O)n2n1	107.5
Cc1cc(C)cc(C(=O)N2CCN(c3nc(C)cc(N(C)C)n3)CC2)c1	103.5
CC1=CCC2C(=O)N(c3ccc(C(=O)OCC(=O)c4ccc(Br)cc4)cc3)C(=O)C2C1 (stereo not given)	110.5
COc1ccc(CNC(=O)c2cccc(Oc3cc(-c4ccccc4)ncn3)c2)c(OC)c1	102.3
CCOC(=O)c1ccc(Cn2c3cc([N+](=O)[O-])ccc3c3nn4cc(-c5ccc(OC)cc5)nc4nc32)o1	143.5
CC(C)c1ccc(-c2noc(N3CCC(C(=O)N4CCOCC4)CC3)n2)cc1	112.7
O=C1CS(=O)(=O)C(c2ccccc2[N+](=O)[O-])N1c1ccc(Oc2ccc(Cl)cc2)cc1 (stereo not given)	112.3
CN(c1ccc(Br)cc1)S(=O)(=O)c1ccc2[nH]cc(C(=O)N3CCOCC3)c(=O)c2c1	104.3
O=C(C1CC1)N1CCN=C1N1CCCCC1	105.5

Sorted by length of the SMILES (falling): part of the list above
SMILES	GIV-Gai inh
COc1ccc(OC)c(NC(=O)c2cc(S(=O)(=O)N3CCN(c4cccc(C)c4C)CC3)ccc2F)c1	105.4
CN(c1ccc(Br)cc1)S(=O)(=O)c1ccc2[nH]cc(C(=O)N3CCOCC3)c(=O)c2c1	104.3
CC(C)C1N=C2c3ccccc3N=C(SCC(=O)NCCc3ccc(S(N)(=O)=O)cc3)N2C1=O (stereo not given)	105.5
O=C1CN(Cc2ccc(Br)cc2)S(=O)(=O)c2ccccc2N1Cc1cccc(F)c1	102.8
CC1CC(C)CN(c2cc(NCCCO)c([N+](=O)[O-])c3nonc23)C1 (stereo not given)	106.0
Cc1cc(/C=C2\NC(=S)NC2=O)c(C)n1-c1ccc(Br)cc1	101.2

An excerpt. The share of hits here may be higher or lower than overall.
